HSV augment: increases HSV replication in cells; actives 0.005% (n = 220,000); maximum fold increase; HSV replication augmentation in cells, fold increase;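 active = peak rise of 1.5-fold or more in the series; tested in PC3 cells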;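 also: first round at 10 µM; read as green reporter fluorescence; hits show the peak of a series up to 25 µM; 1 = signal of infected wells without compound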
RGS16-Gao HTS: RGS16-Galphao interaction regulator (human); bead-based flow cytometry RGS16-Galphao binding, fluorescence; actives lie on both sides; binding response (% of control), % at 10 µM; actives 0.38% (n = 220,000); AID 1441;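 active = below 25% or above 175%, edge rows of some plates excepted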;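 also: Galphao activated by GDP with aluminum fluoride before binding; 100% = wells without compound and 0% = beads without RGS; some results beyond the cut were filed as inactive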
Target sequence (O15492 whole entry, looked up): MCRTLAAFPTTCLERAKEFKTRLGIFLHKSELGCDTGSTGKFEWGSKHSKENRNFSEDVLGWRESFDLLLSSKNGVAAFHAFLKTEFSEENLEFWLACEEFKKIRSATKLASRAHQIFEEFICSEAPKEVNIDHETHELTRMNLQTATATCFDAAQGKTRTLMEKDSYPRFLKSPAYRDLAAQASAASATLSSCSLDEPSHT
Target sequence (P09471 whole entry, looked up): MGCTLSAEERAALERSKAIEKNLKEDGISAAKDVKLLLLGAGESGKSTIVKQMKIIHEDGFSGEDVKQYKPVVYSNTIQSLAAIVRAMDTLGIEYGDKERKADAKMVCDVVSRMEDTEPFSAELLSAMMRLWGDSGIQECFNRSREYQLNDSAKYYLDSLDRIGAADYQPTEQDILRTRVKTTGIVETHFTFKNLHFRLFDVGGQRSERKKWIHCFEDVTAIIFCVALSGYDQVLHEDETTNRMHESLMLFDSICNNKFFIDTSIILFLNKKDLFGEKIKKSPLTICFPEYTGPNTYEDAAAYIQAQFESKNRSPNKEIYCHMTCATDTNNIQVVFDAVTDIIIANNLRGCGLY
GALR2 ag: agonists of human galanin receptor 2 (GALR2). O43603. GALR2-expressing cells, agonist activation read-out. activation, %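 (tested at 5 µM)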. actives 0.48% (n = 140,000);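 active = above mean plus 3 SD of all compounds, about 5% in these data, not always enough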;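 also: 0% = vehicle buffer wells and 100% = reference agonist at full effect; tested in CHO reporter cells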
Target sequence (O43603 whole entry, looked up): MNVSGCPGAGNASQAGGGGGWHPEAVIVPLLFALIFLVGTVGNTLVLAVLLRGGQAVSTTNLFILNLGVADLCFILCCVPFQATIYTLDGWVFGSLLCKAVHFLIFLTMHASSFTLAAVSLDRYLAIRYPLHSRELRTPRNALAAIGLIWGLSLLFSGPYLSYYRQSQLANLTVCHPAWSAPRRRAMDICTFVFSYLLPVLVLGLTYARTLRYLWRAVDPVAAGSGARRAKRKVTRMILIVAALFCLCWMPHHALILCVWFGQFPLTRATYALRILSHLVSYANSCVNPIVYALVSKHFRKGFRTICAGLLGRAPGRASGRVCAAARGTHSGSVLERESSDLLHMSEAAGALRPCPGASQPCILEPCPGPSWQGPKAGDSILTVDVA
INS promoter inh: TRM-6 insulin promoter activity inhibition. actives 0.9% (n = 130,000). TRM-6 cells (human fetal islet line), insulin promoter-eGFP reporter, imaging; reporter expression induced with tamoxifen. inhibition, % at 2 µM;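 active = inhibition above the mean plus 3 SD, with well images judged a real hit on visual review, cut at about 60% in these data, passing the limit was not always enough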
PKD1 inh: inhibitors of human PKD1 kinase | Q15139 | PKD1 kinase fluorescence polarization assay | inhibition, %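 (about 10 µM by stock and volumes)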 | actives 0.056% (n = 200,000) | AID 797;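 active = inhibition of 50% or more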;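 also: controls were vehicle for no effect and a reference inhibitor for full effect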
INS promoter inh cell count: second read-out of INS promoter inh, no call of its own (marks repeat the call); normalized cell count, %; measured here: cell count, toxicity; reference of the scale not given here;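 cells exposed to compound for 48 h; stained nuclei by imaging scaled within each plate; lower means fewer cells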
HSV augment primary fold: recorded beside HSV augment, whose call it bears; fold increase; compound at 10 µM; measured here: primary screen fold increase 10 uM; tested in PC3 cells;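 GFP signal in the first replicate; 1 = infected wells without compound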
* marks the source's active call; other numbers are inactive results; i = inactive; / = no result given. Compounds were not picked by outcome. Share with any hit: about 1.3%.

compound	INS promoter inh	HSV augment primary fold	GALR2 ag	INS promoter inh cell count	PKD1 inh	HSV augment	RGS16-Gao HTS
COc1ccc(/C=C/C(=O)NC(=S)NNC(=O)c2cc(OC)c(OC)c(OC)c2)cc1OC	/	1	/	/	/	i	98
Cc1ccc2nc3c(c(N)c2c1)CCN3c1ccccc1	/	0.91	1.3	/	-6	i	98
Cc1cc(C)c(C)c(S(=O)(=O)N2CCN(CC(=O)Nc3sccc3C#N)CC2)c1C	-48	0.98	0.5	105	4	i	96
FC(F)(F)c1nnc2ccc(NCn3nnc4ccccc43)nn12	1	0.91	-0.7	110	-2	i	99
c1ccc(CSc2ncn[nH]2)nc1	53	0.91	/	82	11	i	99
CCCCC(CC(O)COCCC)C(=O)NN (centres undefined)	8	1	/	110	2	i	118
O=C(CNc1ccccc1)N/N=C/c1c[nH]c2ccccc12	7	0.77	-1.2	84	-3	i	103
CCc1cccc(CC)c1NC(=O)Cn1c(-c2ccccc2Cl)nc2ccccc21	-13	1.1	-1.9	105	-2	i	100

Following part:
compound	INS promoter inh	HSV augment primary fold	GALR2 ag	INS promoter inh cell count	PKD1 inh	HSV augment	RGS16-Gao HTS
Cn1c(SCC(=O)Nc2ccc(N3CCOCC3)c(Cl)c2)nnc1-c1ccccc1	i	0.97	-1.6	43	5	i	/
FC(F)(F)Oc1ccc(NC(=S)Nc2ccccc2N2CCOCC2)cc1	/	0.95	/	/	/	i	104
CCCCC#Cc1ccccc1CC(=O)Nc1ccccc1	14	0.9	-1.7	70	-4	i	108
COc1ccccc1NCC(=O)N/N=C(\C)c1cccs1	0	0.9	/	125	3	i	102
CC1=CC(=O)C(C(C)C)=CC1=NC(=O)c1ccc(C)cc1	/	0.99	/	/	-5	i	57
O=C(Oc1ccc(-c2nccc(-c3ccccn3)n2)cc1)c1cccc(C(F)(F)F)c1	-48	1	0.4	74	3	i	100
CC(O)[C@H]1CNC(=O)C(=O)N1CCc1cccc(F)c1 (some centres undefined)	/	0.81	/	/	/	i	109
Cn1c(Cc2ccccc2)nnc1SCC(=O)Nc1ccc2c(c1)OCO2	-11	0.87	-1.6	128	-3	i	104

(cont.)
compound	INS promoter inh	HSV augment primary fold	GALR2 ag	INS promoter inh cell count	PKD1 inh	HSV augment	RGS16-Gao HTS
CN1CCN(C(=O)C2=C[C@@H](C3CCCCC3)C[C@@H](OCc3ccc(CO)cc3)O2)CC1	/	0.93	/	/	-1	i	110
COc1ccc([N+](=O)[O-])cc1NC(=O)CCC(=O)c1cccs1	-17	1	/	41	-9	i	116
NC(=O)CC(NC(=O)Cc1cccc2ccccc12)c1ccc(N2CCC(Br)CC2)c([N+](=O)[O-])c1 (centres undefined)	/	0.82	/	/	/	i	108
COc1ccc(/C=N/NC(=O)c2cc(-c3cccn3C)n[nH]2)cc1OC	31	0.81	0.1	186	-2	i	100
O=C(O)CC(C(=O)Nc1cccc(C(F)(F)F)c1)C1CCCO1 (centres undefined)	54	0.83	-2.1	125	0	i	97
CN1CCN(C(=O)c2ccc(Cl)c(S(=O)(=O)N3CCCCC3)c2)CC1	15	1.1	-1.0	99	3	i	101
CCOC(=O)C(C)CC(C)C(=O)N1CCOCCOCCN(C(=O)C(C)CC(C)C(=O)OCC)CCOCC1 (centres undefined)	-28	1	-2.2	167	-4	i	101
Cc1cccc(NC(=O)CCCN2C(=S)NC(C)(C)CC2C)c1C (centres undefined)	/	0.73	/	/	2	i	98

(listing goes on)
compound	INS promoter inh	HSV augment primary fold	GALR2 ag	INS promoter inh cell count	PKD1 inh	HSV augment	RGS16-Gao HTS
Cn1ncc(Cl)c1C(=O)Nc1ccc(Cl)cn1	0	1	-2.0	146	-6	i	111
CC(C)(C)[C@H]1C=C(C(=O)NCc2nc3ccccc3[nH]2)O[C@@H](OCc2ccc(CO)cc2)C1	/	0.8	/	/	/	i	77
O=[N+]([O-])c1ccc(-c2csc(NN=C3CCCC3)n2)cc1	38	0.94	/	141	3	i	106
Cc1ccc(-n2nc(-c3ccc(OC(F)(F)F)cc3)cc2N)cc1C	/	0.9	/	/	/	i	113
Cc1ccc(/C=N/N2CCN(c3ccncc3S(=O)(=O)N3CCCCC3)CC2)cc1	-13	0.98	-0.3	92	-6	i	100
CCOC(=O)c1cc(C)sc1/N=C/C1C(=O)CCCC1=O	-13	0.92	-1.4	122	-7	i	109
Cc1ccc(-c2cc([C@H]3[C@H]4C=CC[C@@H](C)[C@@H]4C(=O)N3Cc3ccccc3)ccc2F)cc1	/	1	/	/	/	i	112
CC(=O)c1cccc(NC(=O)CN2C(=O)NC3(CCCCCCC3)C2=O)c1	/	0.94	-0.8	/	7	i	101

The results go on.
compound	INS promoter inh	HSV augment primary fold	GALR2 ag	INS promoter inh cell count	PKD1 inh	HSV augment	RGS16-Gao HTS
Cc1nc(SCC(=O)c2cc3ccccc3oc2=O)c(C#N)c(-c2cccs2)c1C(=O)Nc1ccccc1	-400	0.94	/	29	0	i	104
COc1ccccc1CNC(=O)c1cccs1	17	0.9	-0.1	98	-10	i	93
CCN(CC)S(=O)(=O)c1ccc(/C=C/C(=O)OCC(=O)NCc2ccc3c(c2)OCO3)cc1	/	0.85	/	/	-3	i	96
O=c1sc2ccccc2n1Cc1ccccc1	/	1	/	/	-5	i	103
Cc1cc(C)nc(Sc2ccc(/C=C(\C#N)C(N)=O)o2)n1	-23	1	-1.8	69	-8	i	107
Cn1c(C(=O)NC2CCCCC2)cc2c(=O)n(C)c3ccccc3c21	/	0.84	-2.6	/	3	i	102
c1ccc2c(c1)c1ccccc1n2CN1CCOCC1	40	1	-0.4	155	-8	i	105
Cc1nc(SCc2ccccc2)nc2c1CCC2	27	0.9	/	129	-2	i	95

(more compounds)
compound	INS promoter inh	HSV augment primary fold	GALR2 ag	INS promoter inh cell count	PKD1 inh	HSV augment	RGS16-Gao HTS
O=C(CN1C2CCC1CC(NC(=O)NC1CCCCC1)C2)NC1CC1 (centres undefined)	39	0.97	-2.8	86	-2	i	103
Cc1cccc(-n2nc([N+](=O)[O-])c(=NCc3cccnc3)n2O)c1	/	0.86	-3.5	/	-6	i	93
COc1ccc(N2C(=O)CC(Nc3cccc([N+](=O)[O-])c3)C2=O)cc1 (centres undefined)	/	1.2	/	/	/	i	98
CCCCC(=O)Nc1ccc(NC(=S)NC(=O)c2cccs2)cc1OC	-6	0.97	-0.9	97	-10	i	102
Cc1[nH]c2ccccc2c1SCCN	/	0.9	-1.9	/	-1	i	/
Cc1ccc(NC(=O)CC2Nc3ccccc3NC2=O)cc1Cl (centres undefined)	30	0.67	4.4	64	-10	i	/
O=C(NCc1ccccc1)NC(=O)c1ccncc1	31	1.1	-2.3	135	-2	i	85
CCOC(=O)c1c(NC(=O)c2ccc(-n3cnnn3)cc2)sc2c1CCCC2	-56	1	-2.0	98	-1	i	43

Arranged by the number under HSV augment primary fold (high to low): some entries from above
SMILES	HSV augment primary fold	GALR2 ag	PKD1 inh	HSV augment	RGS16-Gao HTS
CCOC(=O)c1c(NC(=O)c2ccc(-n3cnnn3)cc2)sc2c1CCCC2	1	-2.0	-1	i	43
CCCCC(=O)Nc1ccc(NC(=S)NC(=O)c2cccs2)cc1OC	0.97	-0.9	-10	i	102
Cc1[nH]c2ccccc2c1SCCN	0.9	-1.9	-1	i	/
Cc1cccc(-n2nc([N+](=O)[O-])c(=NCc3cccnc3)n2O)c1	0.86	-3.5	-6	i	93
Cc1ccc(NC(=O)CC2Nc3ccccc3NC2=O)cc1Cl (centres undefined)	0.67	4.4	-10	i	/

Part of the list above in a different format.
Values in the order – INS promoter inh	HSV augment primary fold	GALR2 ag	INS promoter inh cell count	PKD1 inh	HSV augment	RGS16-Gao HTS
Cc1ccc(NC(=O)CC2Nc3ccccc3NC2=O)cc1Cl (centres undefined)
  30	0.67	4.4	64	-10	i	/
O=C(NCc1ccccc1)NC(=O)c1ccncc1
  31	1.1	-2.3	135	-2	i	85
CCOC(=O)c1c(NC(=O)c2ccc(-n3cnnn3)cc2)sc2c1CCCC2
  -56	1	-2.0	98	-1	i	43

(further entries)
compound	INS promoter inh	HSV augment primary fold	GALR2 ag	INS promoter inh cell count	PKD1 inh	HSV augment	RGS16-Gao HTS
CC(C)(C)S(=O)(=O)c1cnc(N2CCCCC2)nc1N	/	1.1	/	/	/	i	100
Cc1cccc(CSCCNC(=O)COc2ccc(Cl)cc2)c1	-83	1	0.3	58	-8	i	86
CCOC(=O)c1c(NC(=O)c2cccnc2)sc(C(C)=O)c1C	/	0.99	-0.2	/	-5	i	51
CCCCc1ccc(S(=O)(=O)NCCc2ccncc2)cc1	-21	1	-2.3	151	-8	i	100
COCCn1c(NCc2ccccc2)nc2c1c(=O)[nH]c(=O)n2C	10	0.7	0.0	96	-1	i	102
CCOc1ccc(NC(=O)c2ccc(F)c(S(=O)(=O)N3CCN(c4ccccn4)CC3)c2)cc1	20	/	-1.7	92	-7	/	92
CC1(C)CC(=O)C2=C(C1)c1c(ccc3ccccc13)NC2c1cc([N+](=O)[O-])cc([N+](=O)[O-])c1O (centres undefined)	-38	1.1	/	99	-4	i	98
CSc1cccc(CN2CCN(CCc3ccccc3)C(CCO)C2)c1 (centres undefined)	/	0.83	/	/	1	i	102

Other entries:
compound	INS promoter inh	HSV augment primary fold	GALR2 ag	INS promoter inh cell count	PKD1 inh	HSV augment	RGS16-Gao HTS
Cc1cccc2cc(C#N)c(N3CCC(O)CC3)nc12	/	1.1	/	/	4	i	102
CCCc1cc(C(=O)Nc2ccc(F)cc2F)no1	/	0.89	-0.4	/	2	i	100
COc1cc(C2NC(=S)NC(C)=C2C(=O)Nc2ccc(C)cc2)ccc1O (centres undefined)	-7	1	/	101	-6	i	105
COc1ccccc1NC(=S)NC1CCC(CC2CCC(NC(=S)Nc3ccccc3OC)CC2)CC1 (centres undefined)	/	0.88	-0.8	/	-11	i	53
O=[N+]([O-])c1ccc2[nH]c3c(c2c1)CCCC3	0	0.89	/	59	-1	i	105
Cc1nc(Br)c(Br)c(C)c1Br	/	0.99	/	/	/	i	95
CCCn1c(=O)c(C#N)cn(C2CC2)c1=O	/	0.96	/	/	/	i	99
CCC(CC)NC(=O)Nc1ccc(C)cc1	/	0.95	/	/	/	i	109

Next section
compound	INS promoter inh	HSV augment primary fold	GALR2 ag	INS promoter inh cell count	PKD1 inh	HSV augment	RGS16-Gao HTS
Cc1ccc[n+](CC(=O)N2CCCc3ccccc32)c1	/	1.1	/	/	0	i	104
CCCNC(=O)CC(NS(=O)(=O)c1ccc(Cl)cc1)c1ccco1 (centres undefined)	/	1	-0.3	/	-1	i	105
Cc1ccc(C(=O)c2ccccc2C(=O)OCC(=O)NCCc2ccccc2)cc1	-33	0.99	0.4	112	5	i	157
O=C(NCC1CCCO1)c1cc(NS(=O)(=O)c2cccs2)cc(NS(=O)(=O)c2cccs2)c1 (centres undefined)	-27	0.85	/	152	-3	i	107
O=C1NC2(CCCCCC2)C(=O)N1Cc1ccc([N+](=O)[O-])cc1	/	0.98	0.0	/	4	i	110
O=C(Nc1ccc2c(c1)OCO2)C1COc2ccccc2O1 (centres undefined)	17	0.86	-1.4	71	-18	i	91
NC(=O)NC(c1ccc(Cl)cc1)c1ccccc1Cl (centres undefined)	/	1.1	/	/	/	i	100
NNC(=S)Nc1ccc(S(=O)(=O)N2CCCCC2)cc1	/	0.85	/	/	/	i	89

Following part:
compound	INS promoter inh	HSV augment primary fold	GALR2 ag	INS promoter inh cell count	PKD1 inh	HSV augment	RGS16-Gao HTS
COc1cc(/C=N\NC(=O)c2nonc2N)c(OC)cc1Br	8	0.62	-0.8	79	-4	i	112
Cc1ccc(CS/C(Nc2ccccc2C)=C(\C#N)C(N)=O)c(C)c1	-14	0.94	0.6	110	12	i	92
CCC(C)(C)NC(=O)CN(Cc1ccc2c(c1)OCO2)C(=O)CCC(=O)Nc1nccs1	/	1	/	/	-2	i	127
CCOC(=O)CCC(=O)N1CCOCCOCCN(C(=O)CCC(=O)OCC)CCOCC1	13	0.84	-2.1	125	-2	i	103
COc1ccc(CN2CCn3nc(C(=O)NC4CC4)cc3C2=O)cc1	35	1	/	109	10	i	99
CC1=CC=CC2=NC(=O)CC(C)(C(=O)N(CC(=O)NC3CCCC3)c3ccccc3C)N12 (centres undefined)	-50	0.99	-0.9	63	-9	i	100
Cc1c(C(=O)OC(C)C)sc(N)c1C(=O)OC(C)C	-43	0.88	-0.4	118	-2	i	98

High-throughput results as filed in PubChem.
